Bioassay records: PubChem, ICCB-Longwood Screening Facility, Harvard Medical School
HCMV UL50-53 inh: inhibitors of HCMV UL50-UL53 interaction, biochemical, HTRF | HCMV UL50-UL53 nuclear egress complex (human cytomegalovirus) | normalized percent inhibition | inhibition, % (test concentration not listed) | actives 0.15% (n = 190,000) | AID 1918969, 2023;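 active = both replicates at 50% or more, plus weaker picks with an unusually low signal ratio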;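 also: stock transfer was 100 nL into about 20 µL; 0% = negative control wells and 100% = wells with untagged competitor protein; inactives centre near -12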
Sa growth inh: S. aureus growth inhibition at 42 and 30 °C, primary screen, LtaS inhibitor project, RN4220, two temperatures | OD600, 20 h, 42 °C; hits give low values | relative growth, % (concentration not given with the values) | actives 0.53% (n = 170,000) | AID 720641, 2013;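 active = growth at 42 °C up to 50% and 20 or more points under that at 30 °C, or under 10% at both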;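 also: 300 nL library stock went into each well; scaled to the means of positive and negative controls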
GIV Gai3 FP: inhibitors of GIV peptide binding to Galpha-i3, primary screen, biochemical, fluorescence polarization, FITC-GIV GBA peptide, rat Galphai3. Guanine nucleotide-binding protein G(i) subunit alpha-3 (Rattus norvegicus), P08753. 90 min; hits give low values; scaled: aluminum fluoride 0%, vehicle 100%. percent of control (FP), % (concentration not given with the values). actives 0.42% (n = 210,000);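 active = replicate mean at 85% of control or lower, very high polarization wells dropped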;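 also: wells of about 15 µL received 100 nL stock; the first replicate is given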
Target sequence (P08753 whole entry, looked up): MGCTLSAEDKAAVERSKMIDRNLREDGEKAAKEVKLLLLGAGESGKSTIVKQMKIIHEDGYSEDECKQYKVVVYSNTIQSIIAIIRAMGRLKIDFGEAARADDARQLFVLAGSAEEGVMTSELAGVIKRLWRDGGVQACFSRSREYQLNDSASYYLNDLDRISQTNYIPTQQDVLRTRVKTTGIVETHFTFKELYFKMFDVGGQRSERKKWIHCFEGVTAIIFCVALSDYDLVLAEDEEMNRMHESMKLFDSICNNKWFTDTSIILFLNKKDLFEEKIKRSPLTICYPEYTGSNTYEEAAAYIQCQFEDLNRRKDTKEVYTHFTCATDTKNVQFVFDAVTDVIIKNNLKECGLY
Sa growth inh second temp: second read-out of Sa growth inh, no call of its own (marks repeat the call); relative growth, %; measured here: growth at 30 °C;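 optical density after 20 h as mean of two plates; 100% = untreated growth and lower means inhibition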
Numbers without * were called inactive; · = no result given.

The opening 2 entries, ahead of the listing:
Compound,Sa growth inh,Sa growth inh second temp,HCMV UL50-53 inh,GIV Gai3 FP
CCOC(=O)c1c(NC(=S)Nn2cnnc2)sc2c1CCCCCC2,101,96,-169,103
CCOc1ccc(CC(=O)Nc2ccc(N3CCCS3(=O)=O)cc2)cc1,·,·,-15,101

The listing, repeating the preview:
Compound,Sa growth inh,Sa growth inh second temp,HCMV UL50-53 inh,GIV Gai3 FP
CCOC(=O)c1c(NC(=S)Nn2cnnc2)sc2c1CCCCCC2,101,96,-169,103
CCOc1ccc(CC(=O)Nc2ccc(N3CCCS3(=O)=O)cc2)cc1,·,·,-15,101
C=CCN(Cc1cc(=O)n2ccsc2n1)S(=O)(=O)c1ccc(Cl)cc1,116,61,-18,·
COc1ccc(N2CCN(C(=O)c3cc4c(-c5ccccc5F)nn(C)c4s3)CC2)cc1,109,88,-30,100
CC(C)N(Cc1ccccc1)C(=O)CN1C(=O)COc2ccc(S(=O)(=O)N3CCCCCC3)cc21,139,101,·,105
COc1ccc(S(=O)(=O)N2CCN(C(=S)NC3CCCCC3)CC2)cc1,93,97,2,107
Cc1ccc2ncc(-c3ccc4cc(C)ccc4n3)cc2c1,107,91,·,104
CCCN1Cc2cccc(C(=O)N3CCN(c4ccc(OC)cc4)CC3)c2C1=O,112,94,-5,102
O=C(c1cccc2ccccc12)N(C1CCCC1)C1CCCC1,90,93,-3,·
COc1ccc(-n2c(SCc3ccc(C#N)cc3)nc3ccccc32)cc1,72,88,-13,·
CCc1cc2c3c(c(=O)oc2cc1OCC(=O)O)CCCC3,91,85,-31,99
Cc1ccc(NCc2cc(=O)n3[nH]c(-c4ccc(C(C)(C)C)cc4)nc3n2)c(C)c1,·,·,-15,122
CCOC(=O)c1ccc(-n2c(/C=C/c3ccc([N+](=O)[O-])o3)nc3ccccc3c2=O)cc1,·,·,-4,104
CN1C(=O)C(O)N(c2ccc(Cl)c(Cl)c2)C1=O (stereo unspecified),100,67,-9,99
COCCn1c(-c2cccc(OC)c2)cnc1NC(=O)NCC(=O)OC,·,·,-10,99
Cc1cc(C(F)(F)F)nc2ccccc12,96,84,-23,·
O=C1CC(c2ccccc2)=Nc2ccccc2N1Cc1ccccc1F,·,·,-38,102
COc1ccccc1CNC(=O)CN1CCc2ccccc2C1,128,98,5,·
CCOC(=O)c1c(NC(=O)c2cc(CC(C)C)on2)sc(C(C)=O)c1C,103,88,-13,101
N#CC(C#N)=C1C=C2C=C(NCc3ccccc3)CCC2CC1 (stereo unspecified),77,97,-26,·
CCOc1ccc(/C=N/n2c(C)csc2=Nc2ccc(C)cc2)c(O)c1,92,87,-16,·
Cc1ccnc2nc(C(=O)Nc3ccc(Cl)cc3F)nn12,116,83,-34,·
Cc1cc(C(=O)NCc2ccccc2C)c2c(C)nn(-c3cccc(F)c3)c2n1,163,63,·,102
Cc1ccc(C(=O)Cn2nc3n(CC(C)C)c(=O)c4ccc(C(=O)NC(C)C)cc4n3c2=O)c(C)c1,·,·,-25,108
O=C(C1COc2ccccc2O1)N1CCN(c2nc3ccc(F)cc3s2)CC1 (stereo unspecified),107,92,·,101

Next section.
Compound,Sa growth inh,Sa growth inh second temp,HCMV UL50-53 inh,GIV Gai3 FP
CCOc1ccccc1NC(=O)C(NS(=O)(=O)c1cccc2nsnc12)c1ccccc1 (stereo unspecified),117,89,·,97
Cc1ccc2c(Cl)c(C(=O)Nc3sc4c(c3C#N)CCC(C(C)(C)C)C4)sc2c1 (stereo unspecified),·,·,-4,114
Cc1cc(Nc2cccc(C(F)(F)F)c2)nc2ccc(NC(=O)c3cccnc3)cc12,105,78,·,115
Cc1ccc2oc(-c3ccc(NC(=O)c4ccc5c(c4)OCCO5)cc3O)nc2c1,·,·,-14,98
NC(=S)c1[nH]nc2c1[nH]c1ccccc12,110,79,-74,·
O=C(Nc1cccc(Cl)c1)c1cc(-c2ccc3c(c2)OCO3)on1,103,90,-7,101
COc1ccc(NC(=O)c2coc(C)c2)cc1,108,90,2,108
O=C(Nc1ccc(N2C(=O)Nc3ccccc3N2O)cc1)c1ccco1,103,92,-7,98
Cc1ccc(-c2noc(COC(=O)CCC(=O)c3ccc(Cl)s3)n2)cc1,94,90,-28,·
CCCCN(C(=O)c1c(C)oc2ncn(C)c(=O)c12)C1CCN(C(C)=O)CC1,91,93,-36,96
O=C(CSC1=Nc2ccccc2C2CC=NN12)Nc1ccc2c(c1)CCC2 (stereo unspecified),75,97,6,·
Cc1ccc2c(c1)c1c(c(=O)n(-c3ccccc3)c(=O)n1Cc1ccccc1C)n2C,94,86,·,105
O=[N+]([O-])c1ccc2nc(N3CCNCC3)nc(-c3ccccc3)c2c1,·,·,-32,104
Cc1nc2nc(SCC(=O)Nc3cccc(Cl)c3)nn2c(C)c1Cc1ccccc1,115,83,·,101
Cc1ccc(CNC(=O)c2ccccc2NC(=O)c2nsc3ccccc23)cc1,110,63,·,104
C=C1c2c(Cl)ccc(O)c2C(O)=C2C(=O)[C@]3(O)C(O)=C(C(N)=O)C(=O)[C@@H](N(C)C)[C@@H]3[C@@H](O)[C@H]12,-0.9*,-0.5*,-33,·
Cc1cccc(NC(=O)Cn2cnc3ccccc3c2=O)c1C,97,86,-20,·
COc1ccc(Nc2nc(Cl)nc(NCCO)n2)cc1,95,69,-11,101
CC(CS(=O)(=O)c1ccccc1)N1CCOCC1 (stereo unspecified),78,93,-18,95
Cc1cc(S(=O)(=O)NCCN(C)C)c(C)s1,119,84,-16,101
C=CCOC(=O)C1=C(C)N(CC)C(=O)NC1c1cc2c(cc1Br)OCO2 (stereo unspecified),·,·,-4,100
O=c1nc2c(-c3ccc(F)cc3Cl)n[nH]n2c2ccccc12,94,105,·,104
CCN1CCN(C(=O)C2=CC(c3ccc(F)cc3)=NS(=O)(=O)N2C)CC1,70,81,-63,100
Cc1ccc(S(=O)(=O)N(C)CCc2noc(-c3ccccc3F)n2)c2nsnc12,·,·,17,102
Cc1csc2ncc(C(=O)NCc3cccs3)c(=O)n12,104,89,2,98

Next part.
Compound,Sa growth inh,Sa growth inh second temp,HCMV UL50-53 inh,GIV Gai3 FP
COc1ccccc1NC(=O)CN1C(=O)c2cccc3cccc1c23,108,85,-35,105
CC(NC(=O)C12CC3CC(CC(C3)C1)C2)C(=O)NC1CCCCC1 (stereo unspecified),93,78,-23,105
Cc1ccc(C)c(NC(=O)c2cc(CN3CCCC3)on2)c1,·,·,-25,102
N=C(N)SCc1ccc(F)cc1,96,95,10,104
CCSc1nc2n(n1)C(c1ccc(CC)cc1)C(C(=O)Nc1ccccc1OC)=C(C)N2 (stereo unspecified),105,89,·,99
Cc1nc(-c2ccccn2)nc(N(C)Cc2ccccc2)c1Cl,138,57,-8,101
C=CCNC(=O)c1cccc(Br)c1,67,93,-37,98
CCN(CC)S(=O)(=O)c1ccc(NC(=O)CN(c2ccccc2)S(=O)(=O)N(C)C)cc1,105,92,-21,99
Cn1cncc1CC1COC(=O)C1C(O)c1ccccc1 (stereo unspecified),97,77,-17,94
Cc1noc(C)c1-c1nc(CN2C(=O)c3ccccc3S2(=O)=O)no1,90,83,-2,97
Cc1nc(-c2ccc(S(=O)(=O)NCc3cccnc3)s2)cs1,105,88,·,102
Fc1ccc(C2CCCN2Cc2ccc(C(F)(F)F)cc2)cc1 (stereo unspecified),·,·,-26,101
Cc1ccc(CNC(=O)c2sc3nc(C)cc(C)c3c2-n2cccc2)cc1,103,101,3,100
CCOC(=O)N1CCC(NC(=O)c2ccc3c(c2)N=C(CC)c2ccccc2S3)CC1,90,70,·,104
CN(Cc1ccc(Cl)s1)Cn1cnnc1C#N,83,76,-66,·
O=C(C1CC1)N1CCCc2cc(NS(=O)(=O)CCc3ccccc3)ccc21,·,·,-2,97
FC(F)(F)COc1ccc(-c2nc(-c3ccc(Cl)cc3)cs2)cn1,87,92,-22,100
CCCn1c2ccccc2c2nnc(SCN3C(=O)c4ccccc4C3=O)nc21,89,79,-17,·
Cc1cc(NO)nc(-c2ccc(Br)cc2)n1,101,117,5,104
COc1ccc(-c2oc(N(C(=O)c3cccs3)C(=O)c3cccs3)c(C#N)c2-c2ccc(OC)cc2)cc1,83,86,-33,·
CC(C)c1ccc(N=C2CC(=O)NN2)cc1,88,88,-23,102
Cc1cccc(OCCn2c(SCCC(=O)O)nc3ccccc32)c1,82,64,-15,99
Cc1ccc(C(=O)CN2C(=O)c3ccccc3OC(C)C2=O)cc1 (stereo unspecified),·,·,-4,111
C=CC(c1ccccc1)C(C(=O)c1ccccc1)N(C)C (stereo unspecified),93,84,-24,105
O=c1[nH]nc(SCc2ccc(CSc3n[nH]c(=O)[nH]c3=O)cc2)c(=O)[nH]1,116,91,-24,·

(further entries)
Compound,Sa growth inh,Sa growth inh second temp,HCMV UL50-53 inh,GIV Gai3 FP
COc1ccc(CCN2C(=O)CC(=O)NC2=S)cc1OC,88,103,2,·
CCC(C(=O)Nc1ccc(Cl)cn1)N1CCN(Cc2ccc(F)cc2)C(=O)C1=O (stereo unspecified),·,·,-27,105
C=CCOc1ccc(C(=O)NCC)cc1,98,100,-15,106
Cc1ccc(C)c(C(=O)CSc2nnc(-c3cccc(S(=O)(=O)N4CCOCC4)c3)o2)c1,122,79,2,·
Cc1ccc(N(CCO)S(=O)(=O)c2ccc(NC3=NS(=O)(=O)c4ccccc43)cc2)cc1,96,93,-11,97
CCCCC(=O)Nc1ccc(C(=O)NCc2cccnc2)cc1,123,93,7,108
COc1cccc(Cn2c(-c3nonc3NC(C)=O)nc3ccccc32)c1,89,91,-36,99
CCOc1ccc(C2CC(=O)N(c3cccc(F)c3)C3=C2C(=O)OC3)cc1 (stereo unspecified),106,97,9,99
CCCOc1ccc(Oc2nc(NC)nc(N3CCOCC3)n2)nn1,·,·,10,106
Cc1sc2nc(CSC(C)C(=O)NC3(C#N)CCCCC3)[nH]c(=O)c2c1C (stereo unspecified),90,65,-21,·
COc1cccc(/C=N\N2CCN(c3ccccc3OC)CC2)c1,86,79,-33,105
COC(=O)c1sccc1S(=O)(=O)N1CCC2(CC1)OCCO2,104,88,-22,95
Nc1ccc(C(=O)Nc2ccccc2)cc1,95,83,-4,107
COc1cccc(C2c3c(-c4ccccc4O)n[nH]c3C(=O)N2CCc2ccc(OC)c(OC)c2)c1 (stereo unspecified),85,84,-4,99
CCOc1ccc2nc(N(Cc3cccnc3)C(C)=O)sc2c1,103,86,·,99
C[C@]12CCC(=O)C=C1C=CC1C2CC[C@@]2(C)C1CC[C@@]21CCC(=O)O1 (stereo partly specified),98,84,-88,·
Cc1sc(-c2noc(C3CC3)n2)cc1S(=O)(=O)N1CCC(C(=O)Nc2ccc3c(c2)OCO3)CC1,·,·,-6,106
NNC(=O)Cc1csc(CC(N)=O)n1,99,77,-31,96
CCCc1nc2ccccc2c(C(=O)OCC(=O)NC)c1CC,86,97,-14,·
CC1CCCN(C(=O)c2ccc(NS(=O)(=O)c3cccs3)cc2)C1 (stereo unspecified),109,92,·,105
O=C(COc1c(Br)cc(Br)c2cccnc12)N1CCNC1=O,112,109,9,·
Cc1cn2c(=O)cc(COc3ccc(NC(=O)c4ccc(C(C)(C)C)cc4)cc3)nc2s1,98,96,0,106
Cc1ccc(CNC(=O)c2ccc(N3CCCC3)c(NC(=O)Nc3ccc(C)cc3)c2)cc1,78,90,·,101
Cc1cc(=O)n2[nH]c(C(C)(C)C)cc2n1,90,92,5,103
CCOc1ccc(-c2nc(C(N)=O)c3c(n2)n(-c2ccc4c(c2)OCO4)c(=O)n3CC)cc1,107,92,-1,99

(next part)
Compound,Sa growth inh,Sa growth inh second temp,HCMV UL50-53 inh,GIV Gai3 FP
Cc1ccc(N/C(N)=N/c2nc(C(F)(F)F)cc(C(F)(F)F)n2)cc1,100,90,·,99
CCn1nc(C)cc1C(=O)Sc1ccccc1Cl,121,50,·,102
O=C(C1CCCO1)N1CCN(C(=S)NCc2ccc(F)cc2)CC1 (stereo unspecified),115,93,-11,104
OC1CCN(Cc2ccccc2)CC1,123,99,12,104
CC(C)CNc1cc(C(C)C)nc2nc(-c3cccnc3)nn12,·,·,-10,107
CCC(CC)C(=O)Nc1cccc(-c2nc3ncccn3c2C)c1,91,88,·,101
CN1CCN(C(=O)C2CCCN(S(=O)(=O)c3ccc(Br)cc3)C2)CC1 (stereo unspecified),104,98,-34,107

Arranged by number of heavy atoms (smallest number first): part of the list above.
Compound,Sa growth inh,Sa growth inh second temp,HCMV UL50-53 inh,GIV Gai3 FP
CCn1nc(C)cc1C(=O)Sc1ccccc1Cl,121,50,·,102
O=C(C1CCCO1)N1CCN(C(=S)NCc2ccc(F)cc2)CC1 (stereo unspecified),115,93,-11,104
Cc1ccc(N/C(N)=N/c2nc(C(F)(F)F)cc(C(F)(F)F)n2)cc1,100,90,·,99
